AID504770: growth inhibitors of E. coli YBA685 in a screen for V. cholerae RctB (chromosome II replication) inhibitors; E. coli YBA685 rctB-dependent plasmid, OD600 growth, 3 h; hits give low values; hit rate 0.27% among 130,000; z-score (test concentration not listed);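 active means z-score under -2 on both plates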;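 further: wells of about 30 µL received 100 nL stock; score is relative to mean and SD of the test wells; the first replicate is given; strong numbers were not always called active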
Ba CapD inh: CapD enzyme inhibition; purified CapD enzyme, fluorescence intensity read-out; hits give low values; some hits fall short of the stated cut; z-score (test concentration not listed); hit rate 0.23% among 140,000; AID 492967;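 active means z-score under -4 in either of two replicates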;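 further: stock transfer was 100 nL into about 40 µL; score is relative to mean and spread of the plate; one replicate is shown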
The depositor's hits bear a star; / = no result given; & = joins results of further samples.

SMILES | AID504770 | Ba CapD inh
COc1ccccc1NC(=O)COc1nsnc1N1CCOCC1 | 1 | 0.4
O=C1C2C3c4ccccc4C(c4ccccc43)C2C(=O)N1Cc1ccccc1 (centres undefined) | / | -0.545
Cc1ccc(S(=O)(=O)N2CCN(CCC(=O)O)CC2)cc1 | 0.55 | 0.055
O=C(O)c1ccccc1OCC1CCCO1 (centres undefined) | -1.7 | /
Cc1cc(NC(=O)CSc2cn(Cc3ccc(F)cc3)c3ccccc23)no1 | 1.4 | -0.76
COC(=O)C(NC(=O)c1ccc(Cl)cc1)C(F)(F)F (centres undefined) | 1 | 70.6
CC[n+]1cccc(-c2nc3ccccc3o2)c1 | -0.75 | 0.205
CCOc1ccc(NC(=O)CSc2nc3ccccc3c(=O)n2NC(=O)CCc2c[nH]c3ccccc23)cc1 | / | -0.625
O=c1c(-c2cnn(-c3ccccc3)c2)coc2c3c(ccc12)OCO3 | -0.2 | 0.675
CC1=C(C(=O)Nc2ccc(C)cn2)C(c2cc([N+](=O)[O-])ccc2Cl)C2=C(CC(C)(C)CC2=O)N1 (centres undefined) | / | -0.07
Cc1c(N(C)C)c(=O)n(-c2ccccc2)n1C | -0.05 | 0.555&1.94
CC(=O)N/C(=C\c1sc2ccccc2c1C)C(=O)O | -1.3 | -0.64
COc1cccc(C(=O)NC2CC(C)(C)NC(C)(C)C2)c1 | -0.4 | 1.67
O=C(O)CSC12CC3CC(CC(C3)C1)C2 | 0.1 | 0.205
FC(F)(F)c1ccncc1-c1ncc(-c2ccccc2)o1 | 0.45 | 83.1
Cc1cc(SCC(=O)OCc2c(C)noc2C)c(C)cc1Br | 0.25 | /
O=C(CN1Cc2ccccc2C1=O)Nc1cnc2ccccc2c1 | -0.05 | 1.67
O=C(Oc1ccccc1)c1cc2ccccc2oc1=O | -0.35 | 6.5
Cc1nn2c(=S)[nH]nc2[nH]c1=O | -0.55 | /
Nc1nonc1-c1ccc(Cl)cc1 | -0.95 | -0.175
O/N=C/C1=C(Cl)c2cc(Cl)ccc2OC1 | 0.45 | 2.37
CCCCOc1ccc(C(=O)Nc2cc(-c3ccccc3)no2)cc1 | 2.15 | -1.2
COc1ccc(C(=O)NC(C)C(c2cccs2)N2CCN(c3ccccc3F)CC2)cc1OC (centres undefined) | -1.85 | 0.285
CCC(=O)Nc1c(-c2ccc(OC)cc2)c(=O)c2ccccc2n1C | 0.4 | /
O=C(OCC(=O)N1CCCCCC1)c1c(Cl)cccc1Cl | 0.1 | 0.28

Part of the list above in a different format.
COc1ccccc1NC(=O)COc1nsnc1N1CCOCC1
- AID504770 = 1
- Ba CapD inh = 0.4
O=C1C2C3c4ccccc4C(c4ccccc43)C2C(=O)N1Cc1ccccc1 (centres undefined)
- AID504770 = /
- Ba CapD inh = -0.545
Cc1ccc(S(=O)(=O)N2CCN(CCC(=O)O)CC2)cc1
- AID504770 = 0.55
- Ba CapD inh = 0.055
O=C(O)c1ccccc1OCC1CCCO1 (centres undefined)
- AID504770 = -1.7
- Ba CapD inh = /

Next records:
SMILES | AID504770 | Ba CapD inh
N#Cc1cnc(Nc2nc3ccccc3o2)nc1-c1ccccc1 | 0.75 | 1.21
O=C(c1ccccc1)c1ccc2nc(NCC3CCCO3)c3nncn3c2c1 (centres undefined) | -0.7 | -1.69
CN(Cc1ccccc1)C(=O)c1cc(-c2ccccc2O)on1 | -0.55 | -0.305
Cc1ccc(S(=O)(=O)Nc2nc3ccccc3nc2Nc2ccc(S(=O)(=O)Nc3onc(C)c3C)cc2)cc1 | 0.4 | /
Nc1ccc2oc(=O)c(-c3ccccc3)cc2c1 | 0.45 | 23.7
COc1ccc(CCCOC(=O)NC(C)C(=O)Nc2ccc3ccccc3c2)cc1 (centres undefined) | / | 0.025
COC(=O)c1cc(C)sc1NC(=O)C1CC(=O)NN1C (centres undefined) | -0.5 | /
c1ccc(Nc2nc(-c3ccccc3)[n+](-c3ccccc3)s2)cc1 | / | -0.905
CCCN1CCN(CCCNC(=O)c2ccc3c(c2)NC(=O)c2ccccc2S3)CC1 | -0.3 | -0.05
Cn1cc(/C=N/NC(=O)Nc2ccccc2)c2ccccc21 | / | 0.14
CCCNC(=S)Nc1ccccc1Br | 1.15 | /
O=C1CCCN1C(=O)c1cc(Cl)cc(Cl)c1 | 0.35 | /
CCN(C(=O)CSc1nc2ccccc2c2nc3ccccc3n12)c1cccc(C)c1 | -2.3 | -1.15
CN(CCC#N)C(=O)Cc1ccc(F)cc1 | 1.4 | /
CC1(C)N(O)C(=O)CN1C(=O)c1ccccc1 | / | 5.89
Cc1cc2ccccn2c1CCC#N | 0.1 | 77.7
Fc1ccc(C2CN3C(=N2)C=Cc2ccccc23)cc1 (centres undefined) | 0.35 | -0.8
Cc1nc2ccccc2nc1CSc1nnc(Cc2ccccc2)n1-c1ccccc1 | -0.35 | -0.825
CCOC(=O)NC(=S)NCCO | / | -0.155
CC1CCN(S(=O)(=O)c2c[nH]c(=O)[nH]c2=O)CC1 | 1.65 | /
CC(Oc1ccc(Cl)cc1Cl)C(=O)NCCC1=CCCCC1 (centres undefined) | 0.3 | 0.67
CSc1nc2ccc(NC(=O)C(C)(C)C)cc2s1 | -2.65 | /
CC1Cc2cc(S(=O)(=O)NCC3CCC(C(=O)Nc4ccccc4)CC3)ccc2N1C(=O)C1CC1 (centres undefined) | -1 | -0.09
O=C(COc1ccc(Cl)cc1)N1CCNCC1 | 0 | 0.4
Cc1ccc(OS(=O)(=O)c2ccc(F)cc2)c([N+](=O)[O-])n1 | / | -0.39

(continued)
SMILES | AID504770 | Ba CapD inh
COc1ccc(NC(=S)NC(C)(C)C)cc1OC | 0.85 | 1.1
O=c1[nH]c2ccccc2n1Cc1ccc(Cl)cc1 | -0.9 | -0.385
CC1CCCC(NCC(=O)Nc2ccc(C(N)=O)cc2)C1C (centres undefined) | 0.35 | /
NNC(=O)c1ccc(CN2CCCCC2)o1 | 0 | 0.99
COC(=O)C1=C(N)OC2=C(C(=O)CC(c3ccccc3)C2)C1c1ccc(Cl)cc1Cl (centres undefined) | / | -0.015
CCOC(=O)C1=C(C)NC2=C(C(=O)CC(c3ccc(OC)c(OC)c3)C2)C1c1ccc(SC)cc1 (centres undefined) | / | 31.9
CC(N)c1nc(-c2cccnc2)no1 (centres undefined) | 0.1 | /
O=S(=O)(Nc1ccc2[nH]ccc2c1)c1cccs1 | 0.15 | 0.66
Cc1[nH]n(-c2ccccc2)c(=O)c1C(c1cc(Br)ccc1O)c1c(C)[nH]n(-c2ccccc2)c1=O | / | -0.735
CC(C)Sc1ncnc2c1cnn2-c1ccccc1 | 0.2 | /
Cc1ccc(NC(=O)c2[nH]nc3c2COc2ccccc2-3)c(C)c1 | 0.5 | -1.33
O=C(CSc1ncccc1C(=O)NCc1ccc(Cl)c(Cl)c1)NCc1ccccc1 | / | 0.305
O=C(Cn1cnc2ccccc2c1=O)OCCN(C1=NS(=O)(=O)c2ccccc21)c1ccccc1Cl | / | 0.285
C=CCNC(=O)c1csc2c1CCCC2 | -0.7 | -0.235
O=C(O)[C@@H]1C[C@@H]2CCCC[C@@H]2N1 | 0.5 | /
O=S(=O)(c1ccc(Cl)s1)N1CCN(Cc2ccccc2)CC1 | -1.6 | -0.175
c1ccc(CN2CCc3nc(N4CCCC4)ncc3C2)cc1 | -1 | 11.3
COc1ccc(Br)cc1CN(C)CC(O)COCc1ccc2c(c1)OCO2 (centres undefined) | 0.25 | /
CN(Cc1ccccc1)C(=O)Cn1c(=O)oc2cc(S(=O)(=O)NCc3ccccc3)ccc21 | 0.4 | 0.105
c1ccc(-n2cccc2CNC2CCCCC2)cc1 | -1.15 | 0.315
CC(C)(C)c1ccc(Oc2ncnc3c2oc2ccccc23)cc1 | 1.1 | /
CC1(C)CC(=O)C2=C(C1)c1c(ccc3ccccc13)NC2c1cc(Br)cc(Br)c1O (centres undefined) | / | 3.49
Oc1ccc(-c2ncc(-c3ccc4ccccc4n3)c(-c3cccc(C(F)(F)F)c3)n2)cc1 | / | 4.85
CCN(CC)C(=O)c1ccc(OC(C)=O)cc1 | -0.15 | -0.255
COc1cccc2c1N(C(=O)COc1ccccc1)C(C)(C)c1ssc(=S)c1-2 | / | -0.445

Arranged by length of the SMILES (smallest number first): some entries from above.
SMILES | AID504770 | Ba CapD inh
CCOC(=O)NC(=S)NCCO | / | -0.155
C=CCNC(=O)c1csc2c1CCCC2 | -0.7 | -0.235
NNC(=O)c1ccc(CN2CCCCC2)o1 | 0 | 0.99
O=C(O)CSC12CC3CC(CC(C3)C1)C2 | 0.1 | 0.205
COc1ccc(NC(=S)NC(C)(C)C)cc1OC | 0.85 | 1.1
CC1(C)N(O)C(=O)CN1C(=O)c1ccccc1 | / | 5.89
CC(=O)N/C(=C\c1sc2ccccc2c1C)C(=O)O | -1.3 | -0.64
FC(F)(F)c1ccncc1-c1ncc(-c2ccccc2)o1 | 0.45 | 83.1
COc1cccc(C(=O)NC2CC(C)(C)NC(C)(C)C2)c1 | -0.4 | 1.67
CCC(=O)Nc1c(-c2ccc(OC)cc2)c(=O)c2ccccc2n1C | 0.4 | /
Cc1ccc(NC(=O)c2[nH]nc3c2COc2ccccc2-3)c(C)c1 | 0.5 | -1.33
Cc1nc2ccccc2nc1CSc1nnc(Cc2ccccc2)n1-c1ccccc1 | -0.35 | -0.825
O=C1C2C3c4ccccc4C(c4ccccc43)C2C(=O)N1Cc1ccccc1 (centres undefined) | / | -0.545
O=C(CSc1ncccc1C(=O)NCc1ccc(Cl)c(Cl)c1)NCc1ccccc1 | / | 0.305
COc1cccc2c1N(C(=O)COc1ccccc1)C(C)(C)c1ssc(=S)c1-2 | / | -0.445
CN(Cc1ccccc1)C(=O)Cn1c(=O)oc2cc(S(=O)(=O)NCc3ccccc3)ccc21 | 0.4 | 0.105
CC1Cc2cc(S(=O)(=O)NCC3CCC(C(=O)Nc4ccccc4)CC3)ccc2N1C(=O)C1CC1 (centres undefined) | -1 | -0.09
CCOc1ccc(NC(=O)CSc2nc3ccccc3c(=O)n2NC(=O)CCc2c[nH]c3ccccc23)cc1 | / | -0.625
Cc1[nH]n(-c2ccccc2)c(=O)c1C(c1cc(Br)ccc1O)c1c(C)[nH]n(-c2ccccc2)c1=O | / | -0.735

Additional records follow:
SMILES | AID504770 | Ba CapD inh
O=c1[nH]cnc2c1sc1nc(N3CCOCC3)c3c(c12)CCCC3 | 2.4 | -1.5
CSc1nc(C)c(-c2cc3ccccn3c2)cc1C#N | 0.2 | -0.05
O=C(O)c1ccc(C(=O)NCC2CCCO2)c(C(=O)O)c1 (centres undefined) | 1.05 | /
COCCn1c(=O)[nH]c(=O)c2c(C)cc(-c3ccc(F)cc3)nc21 | -0.2 | /
CC1CN(C(=O)CSc2nnc(NC(=O)Nc3ccccc3)s2)CC(C)O1 (centres undefined) | 2.2 | /
CC1(C)NC(=O)N(CC(O)CN(Cc2ccccc2)Cc2ccccc2)C1=O (centres undefined) | -0.15 | /
CCOc1ccc(NC(=O)Cn2c(C(F)(F)F)nc3ccccc32)cc1 | / | -0.18
CC1OC(O[C@H]2/C=C/C=C/C=C/C=C/C=C/C=C/C=C/[C@H](C)[C@@H](O)[C@@H](C)[C@H](C)OC(=O)CC(O)CC(O)CCC(O)C(O)CC(O)CC3(O)C[C@H](O)C(C(=O)O)C(C2)O3)C(O)[C@H](N)C1O (some centres undefined) | 0.4 | /
CCN(CC)C(=O)CSc1nc2c(sc(=S)n2CCc2ccccc2)c(=O)n1Cc1ccco1 | / | -0.005
CCOc1ccc(N=c2scc(-c3ccc(S(=O)(=O)N(CC)CC)cc3)n2CCCO)cc1 | 0.35 | -0.385
CCN1CCCC1CNC(=O)c1c(O)c2c([nH]c1=O)CCCC2 (centres undefined) | 0.7 | /
NNC(=O)CSc1ccnc2cc(Cl)ccc12 | / | -0.215
COc1ccc(C(=O)Oc2ccc3c(=O)c(Oc4ccccc4Br)coc3c2)cc1 | / | -0.415
CC(=O)C1=C(C)NC(SCC(=O)c2ccc3ccccc3c2)=C(C#N)C1c1sccc1C (centres undefined) | / | -0.31
CC1=C(C(=O)O)SCCO1 | -0.1 | 2.16
COc1ccc(S(=O)(=O)ON=C2CC(C)(C)N(C(C)=O)C(C)(C)C2)cc1 | / | 0.325
CCSc1ccc(CCN)s1 | -0.55 | /
CCCn1c(N)c(N(CCOC)C(C)=O)c(=O)n(CC(=O)Nc2cc(Cl)cc(Cl)c2)c1=O | -1.65 | /
CCn1c(=O)n(CC)c2cc(S(=O)(=O)N3CCc4ccccc43)ccc21 | 2.25 | -0.22
Cc1noc(C)c1CC(=O)Nc1cccc(-n2cnnn2)c1 | -0.75 | /
CCOC(=O)c1sc2ncnc(NCC3COc4ccccc4O3)c2c1C (centres undefined) | / | 83.3
Cc1oc(C(=O)O)cc1COc1ccc2c(C)c(Cc3ccccc3)c(=O)oc2c1C | 2.25 | -0.185
O=C(O)CCN1C(=O)c2ccc(F)cc2C1=O | -1.15 | -0.35
COc1ccc(/C=C(\C#N)C(N)=O)cc1OC | -0.25 | -2.29
O=c1[nH]c2cccnc2n1-c1ccccc1 | -0.45 | 1.57

New compounds follow.
SMILES | AID504770 | Ba CapD inh
O=C(Nc1ccc(-c2cn3c(n2)SCC3)cc1)c1ccccc1 | -0.95 | -0.265
CCCCN(C(=O)c1cccs1)c1nnc(-c2cc(OC)cc(OC)c2)s1 | -0.45 | /
COCc1nc2ccccc2c2c1C(=O)N(NC(=O)C1CCCNC1=O)C2=O (centres undefined) | / | -1.39
O=C(Cn1c(=O)n(-c2cccc(C(F)(F)F)c2)c(=O)c2sccc21)N1CCCc2ccccc21 | 1.75 | -0.255

From PubChem

This is a random part of the collection; 0.37% or so of the library scored in one or more.
